MT1-MMP reporter: inhibitors of MT1-MMP promoter transcription, cell-based, luciferase reporter, luminescence (AID 618). MT1-MMP promoter luciferase reporter cells, luminescence. calls from a first round at 10 µM; hits with a dose series show EC50 in µM. actives 0.62% (n = 87,000);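 active = over half of the reporter light lost at 10 µM or EC50 under 50 µM; inactive = the rest and hits that failed the dose series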;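 also: actives suppress MT1-MMP promoter-driven transcription so potencies describe inhibitors; HT1080 fibrosarcoma cells; overnight exposure; toxic or luciferase-blocking compounds were not removed from the actives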
Starred values were filed as active, the others as inactive; i = inactive. Only part of the results is shown, so the mix of outcomes need not match the whole.

O=C(Nc1cccnc1Cl)c1cc(-c2ccco2)on1
  MT1-MMP reporter = i

Cc1ccc(C(=O)n2nc(-c3ccccc3)nc2NCc2ccco2)cc1
  MT1-MMP reporter = i

COc1ccccc1CNC(=O)C(CC(C)C)NC(=O)C1CCC(C)CC1 (stereo not drawn)
  MT1-MMP reporter = i

COc1ccc(CCNC(=O)c2ccc(CS(=O)(=O)c3ccc(C)cc3)o2)cc1OC
  MT1-MMP reporter = i

CC1CN(C(=O)CSc2nnc3c(Cl)cc(Cl)cn23)CC(C)O1 (stereo not drawn)
  MT1-MMP reporter = i

NC(=O)c1sc2nc(N3CCOCC3)c3c(c2c1N)CCCC3
  MT1-MMP reporter = i

CCCCNC(=O)Cc1coc2ccc3ccccc3c12
  MT1-MMP reporter = i

O=C(Nc1ccc(N2CCN(C(=O)c3cccs3)CC2)c(Cl)c1)c1ccco1
  MT1-MMP reporter = i

CC1=CC(=O)C=C(C)C1=NOC(=O)c1cccc([N+](=O)[O-])c1
  MT1-MMP reporter = i

COc1ccc(OC)c2c(C)cc(N3CCN(C(=O)c4ccc(Cl)cc4)CC3)nc12
  MT1-MMP reporter = i

CCCCc1c2ccccc2nc2[nH]c3ccccc3c12
  MT1-MMP reporter = i

N#CCSCC(=O)Nc1ccc(Br)cc1
  MT1-MMP reporter = i

CCCCN(C)C(=O)c1cc2cc3ccc(OC)cc3nc2s1
  MT1-MMP reporter = 3.6µM*

CC(c1ccccc1)N1CC(C(=O)N2CCN(c3ccc(F)cc3)CC2)CC1=O (stereo not drawn)
  MT1-MMP reporter = i

Nc1ccccc1C(=O)NCc1ccccc1
  MT1-MMP reporter = i

O=C1c2ccsc2SCCN1Cc1cccc(Cl)c1
  MT1-MMP reporter = i

CNC1=C(Cl)C(=O)c2ccncc2C1=O
  MT1-MMP reporter = i

O=C1CSC(c2cn(-c3ccccc3)nc2-c2cc3ccccc3oc2=O)N1Cc1cccnc1 (stereo not drawn)
  MT1-MMP reporter = i

C[C@@H](C(=O)O)[C@H]1C[C@]1(C)[C@H](NC(=O)OCc1ccccc1)c1ccccc1
  MT1-MMP reporter = i

CCOc1ccccc1N1CCN(C(=O)C(F)(F)F)CC1
  MT1-MMP reporter = i

Cc1cc(C)cc(OCC(=O)Nc2ccccc2N2CCCCC2)c1
  MT1-MMP reporter = i

S=C1CCSc2ccc(Cl)cc2N1
  MT1-MMP reporter = i

Cc1oc(-c2ccccc2)cc1C(=O)Nc1ccc(N(C)C)cc1
  MT1-MMP reporter = i

O=C(NCc1ccccn1)C1CC(c2ccc(F)cc2)=NO1 (stereo not drawn)
  MT1-MMP reporter = i

c1ccc(C2[C@H]3CN(Cc4cccnc4)[C@H](c4ccccc4)C34CC2(c2cccnc2)C4)cc1 (stereo partly drawn)
  MT1-MMP reporter = i

COC(=O)c1cn(NC(=O)CCC2CCCC2)c(=O)c2ccccc12
  MT1-MMP reporter = i

COC(=O)[C@@]1(Cc2ccccc2)[C@H]2c3cc(C(=O)N(C)C)n(Cc4ccccc4)c3C[C@H]2CN1C(=O)c1ccccc1
  MT1-MMP reporter = i

COC(=O)[C@@]1(Cc2ccc(OC)cc2)[C@H]2c3cc(C(=O)N(C)C)n(CCc4ccc(OC)c(Br)c4)c3C[C@H]2CN1C(=O)c1ccccc1
  MT1-MMP reporter = i

CCOc1cccc(OCCCOc2ccccc2)c1
  MT1-MMP reporter = i

COCCNC(=O)C1(CC(C)C)C=CCN1C(=O)OC (stereo not drawn)
  MT1-MMP reporter = i

COc1ccc(CNC(=O)CCn2cccc2)cc1
  MT1-MMP reporter = i

CCCNC(=O)c1ccccc1NC(=O)COc1ccc(OC)cc1
  MT1-MMP reporter = i

O=P(N[C@@H](c1ccccc1)[C@@H]1C[C@H]1CCO)(c1ccccc1)c1ccccc1
  MT1-MMP reporter = i

CC1(C(=O)NC2CCCC2)CCC(=O)N1Cc1ccccc1Cl (stereo not drawn)
  MT1-MMP reporter = i

CC(C)CN(CCC(=O)O)CC(C)C
  MT1-MMP reporter = i

COC(=O)[C@@]1(Cc2ccc(F)cc2)[C@H]2c3cc(C(=O)N(C)C)n(CCc4ccccn4)c3C[C@H]2CN1C(=O)c1ccccc1
  MT1-MMP reporter = i

COC(=O)[C@@]1(Cc2ccccc2)[C@H]2c3cc(C(=O)N(C)C)n(Cc4ccsc4Br)c3C[C@H]2CN1C(=O)c1ccccc1
  MT1-MMP reporter = i

O=[N+]([O-])c1nn(-c2ccc3c(c2)OCCO3)n(O)c1=NCCCO
  MT1-MMP reporter = i

COc1ccc(CCN2C(=O)C3C4CC(C5C(C(=O)N/N=C\c6ccc(Cl)cc6)=NOC45)C3C2=O)cc1OC (stereo not drawn)
  MT1-MMP reporter = i

CC(C)c1cccc2nc3c(c(C(C)(C)C)c12)Cn1c-3cccc1=O
  MT1-MMP reporter = i

O=C(Nc1ccc(N2CCCCC2)cc1)c1cccnc1Cl
  MT1-MMP reporter = i

COC(=O)c1cnn(C(=O)c2ccccc2Br)c1N
  MT1-MMP reporter = i

COC(=O)[C@@]1(Cc2ccc(F)cc2)[C@H]2c3cc(C(=O)N4CCCC4)n(CCc4c[nH]c5ccccc45)c3C[C@H]2CN1C(=O)c1ccccc1
  MT1-MMP reporter = i

COc1ccc(C(=O)COc2ccccc2N2C(=O)C3C4C=CC(C4)C3C2=O)cc1 (stereo not drawn)
  MT1-MMP reporter = i

COc1ccc(-c2c(C)nn(Cc3ccccc3)c2N)cc1
  MT1-MMP reporter = i

CCOC(=O)C1=C(C)N(CCCCCC(=O)O)C(=O)NC1c1ccccc1Cl (stereo not drawn)
  MT1-MMP reporter = i

CCc1ccccc1NC(=O)C1CC(c2ccc(F)cc2)=NO1 (stereo not drawn)
  MT1-MMP reporter = i

COc1cccc(NC(=O)CCNC(=O)Cn2ccc3ccccc3c2=O)c1
  MT1-MMP reporter = i

CCCCCOC(=O)c1ccc(OC(=O)c2cncc(Br)c2)cc1
  MT1-MMP reporter = i

CCN(CC)CC(O)COCCC12CC3CC(CC(C3)C1)C2 (stereo not drawn)
  MT1-MMP reporter = i

O=C1CCCN1CCNC(=S)Nc1ccccc1
  MT1-MMP reporter = i

COc1cc(C2=NOC(C(=O)NCc3cccs3)C2)cc(OC)c1OC (stereo not drawn)
  MT1-MMP reporter = i

Cc1ccc(S(=O)(=O)c2c(COC(=O)c3ccc(Cl)cc3)c(-c3ccccc3)nn2C)cc1
  MT1-MMP reporter = i

COc1ccc(-c2nn[nH]n2)cc1OC
  MT1-MMP reporter = i

CC(C)(CO)N=Cc1c(O)[nH]c2ccccc12
  MT1-MMP reporter = i

CC(=O)N(Cc1ccco1)C1(C(=O)NC2CCCC2)CCCCC1
  MT1-MMP reporter = i

CS(=O)(=O)c1nc(-c2ccc(Br)cc2)cc(-c2ccccc2)c1C#N
  MT1-MMP reporter = i

CC1(C)N=C(SCC(=O)Nc2ccccc2)C(c2ccc(Cl)cc2)=N1
  MT1-MMP reporter = i

COc1ccc(C(=O)NCCc2nnc(SCC(=O)Nc3ccc(Br)cc3)n2C)cc1
  MT1-MMP reporter = i

CCC(=O)N(CCC(c1ccco1)c1ccccc1OC)Cc1cccs1 (stereo not drawn)
  MT1-MMP reporter = i

O=C(O)CCc1c(C(=O)O)[nH]c2ccccc12
  MT1-MMP reporter = i

NC(=O)C1CCN(C(=O)Cn2cccc2C(=O)c2ccccc2)CC1
  MT1-MMP reporter = i

CC1CC(C)CN(C(=O)CSc2nc3ccsc3c(=O)n2Cc2ccccn2)C1 (stereo not drawn)
  MT1-MMP reporter = i

COc1ccc(S(=O)(=O)Nc2ccccc2C(=O)NC(C)(C)C)cc1OC
  MT1-MMP reporter = i

CC1CCN(C(=O)CSc2nc3ccccc3c(=O)n2Cc2ccc3c(c2)OCO3)CC1
  MT1-MMP reporter = i

CCOc1ccc(S(=O)(=O)Nc2ccc(F)cc2)c(C)c1C
  MT1-MMP reporter = i

COc1ccc(N=C(C)C2=C(O)CSC2=O)cc1
  MT1-MMP reporter = i

Cc1cc(C(C)(C)C)ccc1OCCN1CCCC1
  MT1-MMP reporter = i

CCCCn1c(SCC(N)=O)nc2c(sc3ccccc32)c1=O
  MT1-MMP reporter = i

Cc1nc2c3ccccc3nc(SCC(=O)N3CC(C)CC(C)C3)n2n1 (stereo not drawn)
  MT1-MMP reporter = i

CC1CCN(C(=O)CSCc2ccc(Cl)cc2)CC1
  MT1-MMP reporter = i

CC1=C(C(=O)OCc2ccccc2)C(c2ccccc2)NC(=O)N1CCCCCC(=O)O (stereo not drawn)
  MT1-MMP reporter = i

Cc1ccc(N2CCN(S(=O)(=O)N3CCCCCC3)CC2)cc1Cl
  MT1-MMP reporter = i

OCc1cn(-c2ccccc2)nc1-c1ccco1
  MT1-MMP reporter = i

Cc1cc(C)cc(N(CC(=O)N2CCC(C)CC2)S(=O)(=O)c2ccccc2)c1
  MT1-MMP reporter = i

O=C(c1ccccc1)c1ccc(OCC(O)CN2CCN(Cc3ccccc3)CC2)cc1 (stereo not drawn)
  MT1-MMP reporter = i

Cc1[nH]nc(-c2ccc(O)c(C)c2O)c1Oc1ccccc1
  MT1-MMP reporter = i

Cn1c(SCC(=O)c2ccccc2)nnc1-c1cccc(N)c1
  MT1-MMP reporter = i

CCOCCOC(=O)c1ccc(-n2cncn2)nc1
  MT1-MMP reporter = i

COC(=O)[C@@]1(Cc2ccccc2)[C@H]2c3cc(C(=O)N4CCCC4)n(CCc4ccccn4)c3C[C@H]2CN1C(=O)c1ccccc1
  MT1-MMP reporter = i

CC(=O)C1C(=O)c2c(cccc2[N+](=O)[O-])C1=Nc1ccccc1C (stereo not drawn)
  MT1-MMP reporter = i

O=C(Nc1ccccc1)c1cccc(S(=O)(=O)N2CCCCC2)c1
  MT1-MMP reporter = i

Cc1cccc(NC(=S)N2N=CCC2c2ccccc2)c1 (stereo not drawn)
  MT1-MMP reporter = i

COCc1cc(C)nc2sc(C(=O)N3CCCCC3)c(N)c12
  MT1-MMP reporter = i

CC1(C)N=C(SCC(=O)Nc2ccc(Cl)cc2Cl)C(c2ccccc2)=N1
  MT1-MMP reporter = i

O=C(CCN1C(=O)c2ccncc2C1=O)Nc1ccc(F)cc1
  MT1-MMP reporter = i

CCCSc1nnc(NC(=O)c2nc(SC)ncc2Cl)s1
  MT1-MMP reporter = i

COC(=O)[C@@]1(Cc2ccc(F)cc2)[C@H]2c3cc(C(=O)N(C)C)n(CCO)c3C[C@H]2CN1C(=O)c1ccccc1
  MT1-MMP reporter = i

COc1cccc2c1OC1(C)CC2N(C(=O)c2ccco2)C(=S)N1c1ccc(F)cc1 (stereo not drawn)
  MT1-MMP reporter = i

O=C(CCCCCN1C(=O)c2ccccc2C1=O)Nc1ccccc1
  MT1-MMP reporter = i

CO/N=C(/CS(=O)(=O)c1ccc(C)cc1)c1ccc(OC)cc1
  MT1-MMP reporter = i

CCC1=C2CC[C@H]3C(=O)N(C)C(=O)[C@H]3[C@H]2[C@@]2(Cc3ccccc3)C(=NCC3CC3)OC(=O)N2C1=O
  MT1-MMP reporter = i

COC(=O)[C@@H]1C[C@@]2(O)[C@@H](O)[C@@H](O)[C@@H](O)C[C@H]2N1Cc1cc(F)ccc1F
  MT1-MMP reporter = i

C=CCOn1c(=O)c(-c2ccc(OC)c(OC)c2)[n+]([O-])c2ccccc21
  MT1-MMP reporter = i

Fc1ccccc1OCCCCSc1ncccn1
  MT1-MMP reporter = i

CCOc1ccc(NC(=O)c2cccc3c2C(=O)N(CCOC)C3)cc1
  MT1-MMP reporter = i

COc1ccc(C(=O)Nc2ccc(S(=O)(=O)N3CCCCC3)cc2)cc1
  MT1-MMP reporter = i

COC(=O)COc1ccc(S(=O)(=O)NCCC2=CCCCC2)cc1Cl
  MT1-MMP reporter = i

Cc1ccc(Sc2c(C)nn(C(=O)c3cccc(S(=O)(=O)N4CCOCC4)c3)c2C)cc1
  MT1-MMP reporter = i

S=c1sc2c(N3CCN(Cc4ccccc4)CC3)ncnc2n1-c1ccccc1
  MT1-MMP reporter = i

CCOc1ccc2[nH]c(C)c(CN3CCN(C)CC3)c(=O)c2c1
  MT1-MMP reporter = i

CC1=CC(=O)C(C(C)C)=C/C1=N/OC(=O)c1cccc([N+](=O)[O-])c1
  MT1-MMP reporter = i

O=C(Oc1ccccc1Cl)c1ccccc1P(=O)(O)O
  MT1-MMP reporter = i

CC(C)c1cccc2nc3c(c([Si](C)(C)C)c12)Cn1c-3cccc1=O
  MT1-MMP reporter = i

Cc1ccc(C2CC(=O)Nc3cc4c(cc32)OCO4)o1 (stereo not drawn)
  MT1-MMP reporter = i

C/C=C/c1ccccc1OCc1ccc(C(=O)OC)o1
  MT1-MMP reporter = i

Cc1cc(SCc2cc(=O)[nH]c3ccccc23)nc2ccccc12
  MT1-MMP reporter = i

CNC(=O)[C@@H]1C[C@H]1[C@@H](NC(=O)CNC(=O)OCc1ccccc1)c1ccccc1
  MT1-MMP reporter = i

Cc1cc(C)n(CCc2nc3c4ccccc4n(CC#N)c(=O)n3n2)n1
  MT1-MMP reporter = i

CCOC(=O)CSc1nc2cc(C(=O)OC)ccc2c(=O)n1CCN1CCOCC1
  MT1-MMP reporter = i

O=C(c1cnn2c(C(F)F)cc(C3CC3)nc12)N1CCCC1
  MT1-MMP reporter = i

COC(=O)CNC(=O)C1(C)C=CC2(CCCCC2)N1C(=O)OC (stereo not drawn)
  MT1-MMP reporter = i

CC1=NN(c2ccccc2)C(=O)C1(C)C
  MT1-MMP reporter = i

COC(=O)[C@@H]1C[C@@H]2CC[C@@H](O)C[C@@H]2N1Cc1ccc(N2CCOCC2)cc1
  MT1-MMP reporter = i

COc1ccc(NC(=O)Cn2nnc(C(=O)NCCc3ccc(OC)c(OC)c3)c2N)cc1
  MT1-MMP reporter = i

CC1CC(N(C(=O)c2ccc(Cl)cc2)c2ccccc2)c2ccccc2N1C(=O)c1ccco1 (stereo not drawn)
  MT1-MMP reporter = i

FC(F)(F)c1cc(-c2ccco2)nc(NCCc2ccccc2)n1
  MT1-MMP reporter = i

CCCC(=O)Nc1ccccc1NC(=O)c1cc(OC)c(OC)c(OC)c1
  MT1-MMP reporter = i

CCc1ccc(NC(=O)CSc2nnc(COc3ccc4c(c3)CCCC4)o2)cc1
  MT1-MMP reporter = i

Bioassay records deposited in PubChem BioAssay by Sanford-Burnham Center for Chemical Genomics.
